Compound activity as filed in PubChem BioAssay.
KCNQ2 inh – KCNQ2 potassium channel inhibitors, primary screen, cell-based, CHO-K1, FluxOR thallium flux, B-score (AID 2156); O88943; 20 min; hits give low values; only compounds with negative scores are shown here; some inactives read as strong as hits; B-score at 10 µM; 1.1% of 310,000 active;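 active means fluorescence ratio B-score at most minus 3 library SDs, with starting brightness B-score within 2 library SDs, cut at about -5.5 in these data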
Target sequence (O88943 whole entry, looked up): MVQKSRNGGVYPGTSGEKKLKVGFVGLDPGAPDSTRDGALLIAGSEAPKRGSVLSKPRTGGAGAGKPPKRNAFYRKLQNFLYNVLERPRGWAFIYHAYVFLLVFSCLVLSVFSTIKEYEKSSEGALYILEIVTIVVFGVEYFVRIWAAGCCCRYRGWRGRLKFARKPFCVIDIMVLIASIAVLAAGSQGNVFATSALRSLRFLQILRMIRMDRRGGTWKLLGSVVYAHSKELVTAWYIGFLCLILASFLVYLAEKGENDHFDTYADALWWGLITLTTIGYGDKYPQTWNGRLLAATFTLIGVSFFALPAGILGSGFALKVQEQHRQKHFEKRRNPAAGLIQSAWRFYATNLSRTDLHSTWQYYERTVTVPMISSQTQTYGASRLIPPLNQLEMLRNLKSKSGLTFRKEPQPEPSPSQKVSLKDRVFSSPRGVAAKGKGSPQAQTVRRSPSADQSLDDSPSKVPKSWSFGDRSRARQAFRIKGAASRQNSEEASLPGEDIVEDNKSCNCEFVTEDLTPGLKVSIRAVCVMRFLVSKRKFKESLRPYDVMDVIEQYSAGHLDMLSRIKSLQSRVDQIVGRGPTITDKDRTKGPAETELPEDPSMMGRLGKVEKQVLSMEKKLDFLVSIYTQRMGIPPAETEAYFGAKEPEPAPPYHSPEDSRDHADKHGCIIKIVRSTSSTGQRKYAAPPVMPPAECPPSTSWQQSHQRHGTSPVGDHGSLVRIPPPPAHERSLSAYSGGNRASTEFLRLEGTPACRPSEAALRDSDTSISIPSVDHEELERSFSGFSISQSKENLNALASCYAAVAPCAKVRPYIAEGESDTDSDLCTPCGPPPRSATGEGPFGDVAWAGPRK
KCNQ2 inh baseline – recorded beside KCNQ2 inh, whose call it bears; B-score; measured here: initial fluorescence intensity artifact check;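 brightness before thallium and not channel activity; 0 = typical well and far values either way flag optical interference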
* marks the source's active call; other numbers are inactive results.

Start of the listing, in advance (3 entries):
What do the screens show for `CCOC(=O)Cc1csc(NC(=O)Cc2ccc([N+](=O)[O-])cc2)n1`?
KCNQ2 inh: inactive; KCNQ2 inh baseline: -0.91

What do the screens show for `c1ccc(OCc2nc3ccccc3[nH]2)cc1`?
KCNQ2 inh: inactive; KCNQ2 inh baseline: -0.61

What do the screens show for `CCOC(=O)C1CCCN(C(=O)c2cn(CC)c(=O)c3cc(OC)c(OC)cc23)C1` (stereo not drawn)?
KCNQ2 inh: inactive; KCNQ2 inh baseline: 3

The whole of this part (from the top)
What do the screens show for `CCOC(=O)Cc1csc(NC(=O)Cc2ccc([N+](=O)[O-])cc2)n1`?
KCNQ2 inh: inactive; KCNQ2 inh baseline: -0.91

What do the screens show for `c1ccc(OCc2nc3ccccc3[nH]2)cc1`?
KCNQ2 inh: inactive; KCNQ2 inh baseline: -0.61

What do the screens show for `CCOC(=O)C1CCCN(C(=O)c2cn(CC)c(=O)c3cc(OC)c(OC)cc23)C1` (stereo not drawn)?
KCNQ2 inh: inactive; KCNQ2 inh baseline: 3

How did COc1ccc(NC(=O)c2c(F)cccc2F)cc1S(=O)(=O)Nc1ccc(Br)cc1 do in these assays?
KCNQ2 inh: inactive; KCNQ2 inh baseline: -1.4

What do the screens show for `C/C(=N\O)c1c(O)cc(-c2ccccc2)n(-c2ccccc2)c1=O`?
KCNQ2 inh: inactive; KCNQ2 inh baseline: -1

Results for O=C(C1=C[C@H](c2coc3ccccc3c2=O)C[C@H](OCCCCO)O1)N1CCN(Cc2ccccc2)CC1 ?
KCNQ2 inh: inactive; KCNQ2 inh baseline: 0.01

Results for Clc1ccc(C(c2nnnn2C2CCCC2)N2CCSCC2)cc1 (stereo not drawn) ?
KCNQ2 inh: inactive; KCNQ2 inh baseline: -0.36

What do the screens show for `CCSc1nc2nn(-c3ccccc3)c(=O)c-2c2n1CCCCC2`?
KCNQ2 inh: inactive; KCNQ2 inh baseline: 0.74

How did COc1ccc(/C=C(\C#N)C(=O)NCCc2ccccc2)cc1OCc1ccccc1 do in these assays?
KCNQ2 inh: inactive; KCNQ2 inh baseline: 0.09

What do the screens show for `Cc1cc(C)c(NS(=O)(=O)c2ccc(NC(=O)c3cccs3)cc2)c(C)c1`?
KCNQ2 inh: inactive; KCNQ2 inh baseline: 0.97

What do the screens show for `Cc1ccccc1C(=O)NC(CC(C)C)C(=O)Nc1cccc(S(=O)(=O)N(C)C)c1` (stereo not drawn)?
KCNQ2 inh: inactive; KCNQ2 inh baseline: 1.9

Results for CC(C)(C)OC(=O)N1CCC[C@H]1c1nnc(SCc2ccccc2Cl)o1 ?
KCNQ2 inh: inactive; KCNQ2 inh baseline: 0.99

What do the screens show for `O=c1[nH]n(-c2ncnc3c2cnn3-c2ccccc2)c(=O)c2ccccc12`?
KCNQ2 inh: inactive; KCNQ2 inh baseline: -0.52

How did Cc1ccc(C2C3=C(CC(C)(C)CC3=O)NC3=C2C(=O)CC(C)(C)C3)o1 do in these assays?
KCNQ2 inh: inactive; KCNQ2 inh baseline: -0.08

How did Cc1ccc(C)c(N2CCN(C(=O)c3cc4c(C)nc5ccccc5c4o3)CC2)c1 do in these assays?
KCNQ2 inh: inactive; KCNQ2 inh baseline: -0.89

Results for O=C(NC1CCCCC1)n1c(=O)oc2ccccc21 ?
KCNQ2 inh: inactive; KCNQ2 inh baseline: -0.9

How did CCOC(=O)CC(=O)CSc1ccc2nnc(-c3ccccc3)n2n1 do in these assays?
KCNQ2 inh: inactive; KCNQ2 inh baseline: -0.08

How did COc1ccc(-c2noc(C3CCCN(C(=O)c4ccccc4C)C3)n2)cc1 (stereo not drawn) do in these assays?
KCNQ2 inh: inactive; KCNQ2 inh baseline: 0.57

What do the screens show for `Cc1ccc(NC(=O)Nc2cccnc2)cc1`?
KCNQ2 inh: inactive; KCNQ2 inh baseline: 1.1

What do the screens show for `O=C(NCCCN1CCN(c2ccccc2F)CC1)Nc1ccc(F)cc1`?
KCNQ2 inh: inactive; KCNQ2 inh baseline: 0.16

Results for CCCCN(CC)CCNC(=O)c1cn(-c2ccc(Cl)cc2)c(=O)c2ccccc12 ?
KCNQ2 inh: inactive; KCNQ2 inh baseline: -0.97

How did COc1ccc(-c2nc(C#N)c(N3CCC(C)CC3)o2)cc1 do in these assays?
KCNQ2 inh: inactive; KCNQ2 inh baseline: -0.1

How did COc1ccc(-c2nc(C#N)c(NCCCn3ccnc3)o2)cc1OC do in these assays?
KCNQ2 inh: inactive; KCNQ2 inh baseline: 4.2

What do the screens show for `Clc1ccc(-c2noc(CSc3nnc(Cc4cccs4)n3-c3ccccc3)n2)cc1`?
KCNQ2 inh: inactive; KCNQ2 inh baseline: 1.1

Results for O=C(COC(=O)c1ccc(OC(F)F)cc1)NCCNC(=O)COC(=O)c1ccc(OC(F)F)cc1 ?
KCNQ2 inh: inactive; KCNQ2 inh baseline: 0.04

How did CCOC(=O)C1=C(C)N(C)C(=S)NC1c1ccc(Cl)cc1Cl (stereo not drawn) do in these assays?
KCNQ2 inh: inactive; KCNQ2 inh baseline: 0.33

What do the screens show for `COc1cc(-c2csc(CCn3nc(C)cc3C)n2)cc(OC)c1OC`?
KCNQ2 inh: inactive; KCNQ2 inh baseline: -1.3

How did CCCCn1c(SCc2cccc([N+](=O)[O-])c2)nc2ccsc2c1=O do in these assays?
KCNQ2 inh: inactive; KCNQ2 inh baseline: 0.01

Results for CCC(OC(C)=O)c1cc2c(cc1[N+](=O)[O-])OCCO2 (stereo not drawn) ?
KCNQ2 inh: inactive; KCNQ2 inh baseline: 0.74

What do the screens show for `COc1ccc(NC(=O)C2C3C=CC4(CN(Cc5cccnc5)C(=O)C24)O3)c(OC)c1` (stereo not drawn)?
KCNQ2 inh: inactive; KCNQ2 inh baseline: 0.92

Pulled one by one from the list above, four records:
How did COc1ccc(/C=C(\C#N)C(=O)NCCc2ccccc2)cc1OCc1ccccc1 do in these assays?
KCNQ2 inh: inactive; KCNQ2 inh baseline: 0.09

How did Cc1ccc(C2C3=C(CC(C)(C)CC3=O)NC3=C2C(=O)CC(C)(C)C3)o1 do in these assays?
KCNQ2 inh: inactive; KCNQ2 inh baseline: -0.08

Results for O=C(COC(=O)c1ccc(OC(F)F)cc1)NCCNC(=O)COC(=O)c1ccc(OC(F)F)cc1 ?
KCNQ2 inh: inactive; KCNQ2 inh baseline: 0.04

Results for O=C(C1=C[C@H](c2coc3ccccc3c2=O)C[C@H](OCCCCO)O1)N1CCN(Cc2ccccc2)CC1 ?
KCNQ2 inh: inactive; KCNQ2 inh baseline: 0.01

Continuation:
What do the screens show for `CC1=C(C(=O)OCc2ccccc2)C(c2ccc([N+](=O)[O-])cc2)NC(=O)N1` (stereo not drawn)?
KCNQ2 inh: inactive; KCNQ2 inh baseline: -1.6

What do the screens show for `CCCc1nc2ccc([N+](=O)[O-])cc2[nH]1`?
KCNQ2 inh: inactive; KCNQ2 inh baseline: 1.3

What do the screens show for `O=C(Nc1cccc(S(=O)(=O)NC2=NCCC2)c1)C1CC(=O)N(c2ccc3c(c2)OCCO3)C1` (stereo not drawn)?
KCNQ2 inh: inactive; KCNQ2 inh baseline: -1.3

How did CSc1nc(N)nc(SCC(=O)C23CC4CC(CC(C4)C2)C3)c1C#N do in these assays?
KCNQ2 inh: inactive; KCNQ2 inh baseline: 1.6

What do the screens show for `Cc1ccc(OCC(=O)N2CCN(C3=NS(=O)(=O)c4ccccc43)CC2)cc1`?
KCNQ2 inh: inactive; KCNQ2 inh baseline: 0.59

Results for Cc1cccc(CCNC(=O)c2cc(S(=O)(=O)N3CCOCC3)cn2C)c1 ?
KCNQ2 inh: inactive; KCNQ2 inh baseline: -0.06

What do the screens show for `Cc1cc(C)c(S(=O)(=O)c2ccccc2)c(OC(=O)c2c(F)cccc2F)n1`?
KCNQ2 inh: inactive; KCNQ2 inh baseline: 4.1

How did O=C(CN(Cc1ccccc1)C(=O)c1csnn1)NCCc1ccccc1 do in these assays?
KCNQ2 inh: inactive; KCNQ2 inh baseline: 3

Results for Cc1cc(/C=C2/NC(=O)NC2=O)c(C)n1-c1sc2c(c1C#N)CCCC2 ?
KCNQ2 inh: inactive; KCNQ2 inh baseline: 1.1

How did C=CCc1cc(OC)ccc1OCCON1C(=O)CCC1=O do in these assays?
KCNQ2 inh: inactive; KCNQ2 inh baseline: 1.9

How did Cc1cc2cc(CN3C(=O)c4ccccc4C3=O)ccc2n1C do in these assays?
KCNQ2 inh: inactive; KCNQ2 inh baseline: -1.3

Results for CNC(=O)COC(=O)/C=C/c1cn(-c2ccccc2)nc1-c1ccc2c(c1)OCCO2 ?
KCNQ2 inh: inactive; KCNQ2 inh baseline: 1.2

How did O=C(CN(c1ccc(F)cc1)S(=O)(=O)c1ccccc1)Nc1ccccc1C(=O)O do in these assays?
KCNQ2 inh: inactive; KCNQ2 inh baseline: -0.02

How did CCN=C1SC(CC(=O)NC2CCCCC2)C(=O)N1CC (stereo not drawn) do in these assays?
KCNQ2 inh: inactive; KCNQ2 inh baseline: -0.84

What do the screens show for `O=C(NCCCO)c1cc([N+](=O)[O-])cc2c1C=Cc1ccccc1O2`?
KCNQ2 inh: inactive; KCNQ2 inh baseline: -0.03

How did COCCNS(=O)(=O)c1cc(C)c(C)cc1C do in these assays?
KCNQ2 inh: inactive; KCNQ2 inh baseline: -1.6

What do the screens show for `COc1cc(C(=O)N/N=C/c2ccc(OC(=O)c3cccc(C)c3)c(OC)c2)ccc1O`?
KCNQ2 inh: inactive; KCNQ2 inh baseline: -0.58

Results for CCC/C=N/NC(=O)c1cc(-c2ccccc2)nc2ccccc12 ?
KCNQ2 inh: inactive; KCNQ2 inh baseline: 1.2

Results for O=C(N/C(=C/c1ccco1)C(=O)N1CCCCCC1)c1ccccc1 ?
KCNQ2 inh: inactive; KCNQ2 inh baseline: -0.12

What do the screens show for `Cc1cccc(N2CCN(C(=O)CCCSc3nc4ccccc4[nH]3)CC2)c1C`?
KCNQ2 inh: inactive; KCNQ2 inh baseline: -2

Results for COc1ccc(C(=O)N2CCC(O)(c3ccc(Cl)cc3)CC2)cc1OC ?
KCNQ2 inh: inactive; KCNQ2 inh baseline: 0.81

How did CC(=O)Nc1ccc(NC(=O)CSc2nc3c([nH]c4ccccc43)c(=O)n2-c2ccccc2F)cc1 do in these assays?
KCNQ2 inh: inactive; KCNQ2 inh baseline: -2.3

What do the screens show for `COc1cccc(/C=C2\SC(=S)N(CCCC(=O)NC3=NCCS3)C2=O)c1`?
KCNQ2 inh: inactive; KCNQ2 inh baseline: 3.6

How did COc1ccc(NS(=O)(=O)c2ccc(C(=O)N3CCN(Cc4ccccc4)CC3)cc2)cc1 do in these assays?
KCNQ2 inh: inactive; KCNQ2 inh baseline: -0.25

How did Nc1nc(Nc2cccc(F)c2)nc(NCc2ccco2)c1[N+](=O)[O-] do in these assays?
KCNQ2 inh: inactive; KCNQ2 inh baseline: 0.16

What do the screens show for `O=C(CSCc1ccccc1)N1CCc2ccccc21`?
KCNQ2 inh: inactive; KCNQ2 inh baseline: -1.4

What do the screens show for `O=C(COC(=O)c1cccs1)Nc1ccccc1[N+](=O)[O-]`?
KCNQ2 inh: inactive; KCNQ2 inh baseline: -0.35

How did COCc1cc(=O)[nH]c(=S)[nH]1 do in these assays?
KCNQ2 inh: inactive; KCNQ2 inh baseline: 0.07

How did Cc1ccc(N2CCN(CCCCN3C(=O)C4CCCN4C3=O)CC2)cc1 (stereo not drawn) do in these assays?
KCNQ2 inh: inactive; KCNQ2 inh baseline: -0.38

Results for Cc1noc(NS(=O)(=O)c2ccc(NC(=O)CCCOc3ccc(Cl)cc3Cl)cc2)c1C ?
KCNQ2 inh: inactive; KCNQ2 inh baseline: -0.08

What do the screens show for `O=C(COC(=O)CCC(=O)c1ccc(F)cc1)Nc1ccc2[nH]c(=O)[nH]c2c1`?
KCNQ2 inh: inactive; KCNQ2 inh baseline: -1.1

What do the screens show for `Oc1oc(-c2ccccc2)nc1C=NCc1ccncc1`?
KCNQ2 inh: inactive; KCNQ2 inh baseline: 1.4

How did CCCCCC(=O)Nc1ccc(N2CCN(C(=O)CCC)CC2)cc1 do in these assays?
KCNQ2 inh: inactive; KCNQ2 inh baseline: -0.01

What do the screens show for `CCOC(=O)c1[nH]c(COC(=O)c2ccccc2NC(=O)c2ccco2)c(C(=O)OCC)c1C`?
KCNQ2 inh: inactive; KCNQ2 inh baseline: -0.45

How did O=C(CN1CCc2ccccc2C1)Nc1ccc(F)cc1F do in these assays?
KCNQ2 inh: inactive; KCNQ2 inh baseline: 3

Results for CCn1c(-c2ccccc2)ccc(C#N)c1=O ?
KCNQ2 inh: inactive; KCNQ2 inh baseline: 0.38

What do the screens show for `C=CCn1cc(C(=O)OC)c(=O)c2cc(S(=O)(=O)N(CC)CC)ccc21`?
KCNQ2 inh: inactive; KCNQ2 inh baseline: 0.41

How did CCOC(=O)C(=Cc1ccc(F)cc1)C(=O)OCC do in these assays?
KCNQ2 inh: inactive; KCNQ2 inh baseline: 0.29

What do the screens show for `COC(=O)c1ccc(C(=O)NC2CCCN(Cc3ccc(Cl)cc3)C2)nc1` (stereo not drawn)?
KCNQ2 inh: inactive; KCNQ2 inh baseline: 0.92

Results for CCOC(=O)Cn1nnnc1CN(Cc1ccccc1)Cc1cc2cc(CC)ccc2[nH]c1=O ?
KCNQ2 inh: inactive; KCNQ2 inh baseline: 0.26

How did O=C(NCC1COc2ccccc2O1)c1ccco1 (stereo not drawn) do in these assays?
KCNQ2 inh: inactive; KCNQ2 inh baseline: -1.5

What do the screens show for `CCc1ccc(/C=C2\SC(=S)N(CCCC(=O)Nc3nccs3)C2=O)cc1`?
KCNQ2 inh: inactive; KCNQ2 inh baseline: 0.1

What do the screens show for `CC1(C)C2CC[C@]3(C)C(CC=C4[C@@H]5C[C@@](C)(CO)CC[C@]5(C(=O)O)CC[C@]43C)[C@@]2(C)CC[C@@H]1O` (stereo partly drawn)?
KCNQ2 inh: inactive; KCNQ2 inh baseline: -0.11

Results for O=S(=O)(Nc1nc2ccc(S(=O)(=O)N3CCCC3)cc2s1)c1ccc(F)cc1 ?
KCNQ2 inh: inactive; KCNQ2 inh baseline: 0.68

An excerpt. The share of hits here may be higher or lower than overall.
